Screens deposited in PubChem by National Center for Advancing Translational Sciences (NCATS).
VACV mCherry inh = qHTS for Stage-Specific Inhibitors of Vaccinia Orthopoxvirus: mCherry Reporter Primary qHTS | Vaccinia virus mCherry reporter infection, fluorescence; about a quarter of the inactives have no number | Potency, µM (highest dose often 36.5 µM), for the others: at the top dose activity change, negative = inhibition, most hits filed as inhibitors | 0.63% of 310,000 active; active = well fitted inhibition curve with a large enough effect; inconclusive = small, poorly fitted or top-dose-only effect; inactive = no such curve, though single readings can be large or run the other way; tested in A549 cells; also: nearly all actives have a fitted effect of over 35% in size; inactives centre near -10
VACV Venus inh = qHTS for Stage-Specific Inhibitors of Vaccinia Orthopoxvirus: Venus Reporter Primary qHTS; Vaccinia virus Venus reporter expression, fluorescence; Potency, µM (titrated, usually from 36.5 µM), for inactives: top-dose activity change, negative = inhibition, most hits filed as inhibitors; 0.46% of 330,000 active; active means well fitted inhibition curve with a large enough effect; inconclusive means small, poorly fitted or top-dose-only effect; inactive means no such curve, though single readings can be large or run the other way; tested in A549 cells; also: nearly all actives have a fitted effect of over 30% in size; inactives centre near -10
Active calls of the source: *; i = inactive; ? = inconclusive; nt = not tested or not shown; [ ] = another dose, or the depositor's remark. % is scaled to controls: 0 for no effect and ±100 for the full control effect; potency is read from the fitted curve at half-maximal effect.

Under each structure: VACV mCherry inh | VACV Venus inh
CCc1ccc(N2C(=O)CSC23C(=O)N(Cc2cccc(F)c2)c2ccccc23)cc1 (stereo not given)
 : ? | -17%
Cc1ccc(S(=O)(=O)N(C)CCCN(C)c2nc(-c3cccs3)nc3ccccc23)cc1
 : -8% | -22%
CCOC(=O)C1=C(CNCCOc2ccc(OC)cc2)NC(=O)NC1c1ccc2c(c1)OCO2 (stereo not given)
 : -18% | -15%
CC(O)Cc1cn(CC(=O)N2CCNCC2)nn1 (stereo not given)
 : i | -5%
CCCCC1=CC2=C(c3ccco3)C(=O)C(C)(OC(=O)c3ccc(OC)cc3)C(=O)C2=CN1C(CO)CO (stereo not given)
 : i | -13%
CC(C)OC(=O)c1cc(NC(=O)c2nn(C)cc2Br)cc(C(=O)OC(C)C)c1
 : -13% | -3%
Cc1ccc(S(=O)(=O)NCCOc2nc(N(C)C)nc(N(C)C)n2)cc1
 : -7% | -6%
COc1ccc(NC(=O)O[C@@H](C)[C@@H]2CN3CCc4c([nH]c5ccc(-c6ccc(OC)cc6)cc45)[C@@H]3C[C@@H]2N(C)C(=O)Nc2ccc(OC)cc2)cc1
 : ? | -27%
O=C(COc1ccc(Cl)cc1)NCc1nnc(SCC(=O)NCCc2ccccc2)o1
 : -10% | -11%
CS/C(=N\S(=O)(=O)c1cccs1)Nc1ccc(Cl)cc1
 : ? | -28%
CCOC(=O)CSc1c(-c2ccccc2)c2cc(Cl)ccc2[nH]c1=O
 : -12% | -6%
CCCC1=Nc2cc(C(=O)NCCCOCC)ccc2Sc2ccccc21
 : -26% | ?
CC(C)c1ccc(C(=O)OCC(=O)c2c(N)n(C)c(=O)n(C)c2=O)cc1
 : -3% | -20%
COC(=O)c1c(NC(=O)c2cc3nc(-c4ccc(OC)cc4)cc(C(F)(F)F)n3n2)sc2c1CCCC2
 : i | -12%
C=C(C)CSc1nc2sc3c(c2c(=O)n1-c1ccccc1)CC(C(C)C)OC3 (stereo not given)
 : 6% | 5%

The last 5 records of the section above open the next one.
Under each structure: VACV mCherry inh | VACV Venus inh
CCOC(=O)CSc1c(-c2ccccc2)c2cc(Cl)ccc2[nH]c1=O
 : -12% | -6%
CCCC1=Nc2cc(C(=O)NCCCOCC)ccc2Sc2ccccc21
 : -26% | ?
CC(C)c1ccc(C(=O)OCC(=O)c2c(N)n(C)c(=O)n(C)c2=O)cc1
 : -3% | -20%
COC(=O)c1c(NC(=O)c2cc3nc(-c4ccc(OC)cc4)cc(C(F)(F)F)n3n2)sc2c1CCCC2
 : i | -12%
C=C(C)CSc1nc2sc3c(c2c(=O)n1-c1ccccc1)CC(C(C)C)OC3 (stereo not given)
 : 6% | 5%
Cc1nn(C(=O)C2CC2)c(C)c1Sc1ccc(Cl)cc1
 : -6%[1.46 µM] | -6%
Nc1c(-c2ccc(Cl)cc2)cnn1-c1cc(C(F)(F)F)cc(C(F)(F)F)c1
 : ? | 1%
CCOc1cc(/C=C2\CN(C)C/C(=C\c3ccc(O)c(OCC)c3)C2=O)ccc1O
 : ? | ?
Cn1cc(CNC(=O)c2cc(COc3ccc4c(c3)CCCC4)on2)cn1
 : i | -5%
COc1cc(-c2nnc(SCC(=O)Nc3ccc(C(=O)O)cc3)o2)cc(OC)c1OC
 : i | -5%
Cc1ccc(O)c(Cc2cc(C)cc(Cc3cc(C)ccc3O)c2O)c1
 : ? | ?
Cc1ccc(C2=NCCn3c2c2ccccc2[n+]3[O-])cc1
 : ? | -2%
COc1ccc(NC(=O)CSc2nnc3c(C)cc4ccccc4n23)cc1
 : ? | -17%
NCCCC[C@H]1CNC(=O)C(=O)N1CCc1cccc(F)c1
 : i | -5%
Cc1cc(C)c(NC(=O)CSc2nc(=O)[nH]c3c2CCCC3)c(C)c1
 : -11%[7.34 µM] | -4%[7.34 µM]
O=C(CN1C(=O)c2ccccc2S1(=O)=O)N1CCN(c2ccc(F)cc2)CC1
 : -12% | -10%
O=C(NCC1CC1)c1ccc2sc([C@H]3C[C@H](O)[C@@H](CO)O3)nc2c1
 : -10% | -11%
COc1cc([N+](=O)[O-])ccc1NC(=O)C[n+]1ccccc1C
 : i | -12%
CCOC(=O)COc1ccc2nsnc2c1
 : nt | ?
CCCCCCCCCCCC1=C(O)C(=O)C=C(O)C1=O
 : ? | ?
O=C(CSc1nnc(NC(=O)c2ccc(F)cc2)s1)NC1CCCC1
 : i | 6%
CC1(c2ccccc2)NC(=O)N(CC(=O)N2CCc3ccccc32)C1=O (stereo not given)
 : -6% | -20%
O=C(O/N=C(\c1ccccc1)c1ccncc1)c1ccccc1F
 : i | 8%
CCn1cc(C(=O)OCC(=O)c2ccccc2)c(=O)c2ccc(C)nc21
 : -10% | -15%
COc1ccc(OC(C)C(=O)Nc2cccc(F)c2)cc1 (stereo not given)
 : -13% | -7%
CC(=O)Nc1cc(C(=O)NCc2ccco2)ccc1Sc1ccc(C)cc1
 : -5% | -1%
COc1ccc(-c2c(C#N)c(N)nc3c2c(=O)n(C)c(=O)n3C)cc1Cl
 : i | -6%
Cc1ccc(OCC(=O)Nc2cc(C)on2)c([N+](=O)[O-])n1
 : -6% | 1%
COC(=O)c1sccc1NC(=S)Nc1cc(C)cc(C)c1
 : -12% | -15%
COc1cc(CNCc2cccs2)ccc1OCC(=O)NC(C)(C)C
 : -24% | -12%
Cc1cccn2c(=O)c3cc(C(=O)NC4CCCC4)c(=N)n(C4CCCC4)c3nc12
 : 0% | -23%
N#C/C(=C(/O)CN1CCOCC1)c1nc(-c2ccccc2)cs1
 : -3% | 11%
COc1nc(NCCc2ccc(OC)c(OC)c2)nc(OC)n1
 : nt | -17%
COc1ccc(CCNC(=O)CSc2nc3ccccc3o2)cc1
 : -11% | 1%
COc1cccc(CNC(=O)COC(=O)c2nc(Cl)c(Cl)c(Cl)c2Cl)c1
 : ? | ?
CCOC(CNC(=O)C(=O)Nc1cc2c3c(c1)CCN3C(=O)CC2)OCC
 : -16% | -11%
COc1ccc(CN(CC(=O)NC2CCCC2)C(=O)CCC(=O)Nc2nc(C)cs2)cc1
 : i | -11%
COc1ccc(NC(=O)C[C@H]2C(=O)N(CCc3ccccc3)C[C@@H]2CSC)cc1
 : -11% | 1%
COc1cc2nc(N3CCCN(C)CC3)nc(NC3CCNCC3)c2cc1OC
 : -3% | -13%
Cc1ccc(-c2csc(NC(=O)CSc3nc4ccccc4o3)n2)cc1
 : -3% | -30%
CN(C)C(=O)CSc1nc2ccccc2n1CC(=O)N1CCN(c2ccccc2)CC1
 : -9% | -5%
COC(=O)c1sc(NC(=O)/C=C/c2ccccc2Cl)nc1C
 : i | -13%
COc1ccc(Cl)cc1NC(=O)CN(C)Cc1cccs1
 : -16% | -9%
O=c1c2ccccc2c(-c2ccccc2)nn1-c1cc(Cl)ccc1[N+](=O)[O-]
 : -10% | -19%
Cc1ccc(NC(=S)NNC(=O)c2ccccc2O)c(C)c1
 : -23% | -24%
Cc1c(C(=O)Nc2ccc3c(c2)OCCO3)cnn1C
 : -12% | -7%
COc1ccc(-n2c(C)cc(C3=NNC(=NC4CC4)SC3)c2C)cc1
 : -6% | -5%
O=C(CSc1nnc2c(n1)[nH]c1ccccc12)NC1CCCCC1
 : -2% | 3%
CCN1CCN(C(=O)CCc2ccc(S(=O)(=O)NCCc3ccccc3)cc2)CC1
 : nt | -28%
CN1CCCN(CC(O)COCc2cccs2)CC1 (stereo not given)
 : nt | -29%
S=C(NCCCc1cnc[nH]1)NCCCN(CCc1ccc(Cl)cc1)c1ccc(Br)cn1
 : ? | ?
Cc1ccc(S(=O)(=O)NCC(=O)OCc2ccccc2)cc1
 : i | 1%
Cn1nnnc1SCC(=O)c1cccs1
 : -1% | -14%
C[C@H]1CN([C@@H](C)CO)S(=O)(=O)c2ccc(C#CC(C)(C)O)cc2O[C@H]1CN(C)Cc1ccccc1
 : -9% | -17%
O=C(Nc1ccc(S(=O)(=O)Nc2nccs2)cc1)c1ccncc1
 : 8% | 4%
Cc1cc(C)n2nc(SCC(=O)N3CCc4ccccc43)nc2n1
 : -10% | -8%
O=C(COC(=O)c1ccc(Cl)c(S(=O)(=O)N2CCCC2)c1)NC1CCCCC1
 : i | -10%
CCN1CCN(C(=O)c2ccc(Cl)c(S(=O)(=O)N3CCOCC3)c2)CC1
 : i | -5%
Cc1ccc(-c2ccc(CCC(=O)O)n2NC(=O)c2cccs2)cc1
 : -21% | -9%
COc1ccc(CN2C(=O)c3ccccc3C2c2nnnn2Cc2ccccc2)cc1OC (stereo not given)
 : -6% | -7%
CCc1cccc(N2C(=O)CSC23C(=O)Nc2ccccc23)c1 (stereo not given)
 : -2% | 9%
CN(C)/N=C/c1ccc(N2CCOCC2)cc1
 : -16% | -14%
CCOC(=O)c1c(NC(=O)COC(=O)c2cccc([N+](=O)[O-])c2)sc(C(=O)N(C)C)c1C
 : i | -12%
O=C(O)Cc1ccc(NC(=O)c2ccc3c(c2)C(=O)N(CC2CCCO2)C3=O)cc1 (stereo not given)
 : i | -7%
COCCN(C(=O)COC(=O)/C=C/c1ccco1)c1c(N)n(Cc2ccccc2)c(=O)[nH]c1=O
 : -19% | -13%

Further structures
Under each structure: VACV mCherry inh | VACV Venus inh
Cc1ccc([C@H]2C[C@@H](n3cc(C4CC4)nn3)[C@H](O)CN2C(=O)c2cccs2)cc1
 : i | -18%
COc1ccc(OC)c(/C=C/C(=O)OCC(=O)c2c(N)n(C)c(=O)n(C)c2=O)c1
 : i | -7%
O=C1OC(OC2CCCCC2)(c2ccccc2)c2ccccc21 (stereo not given)
 : -9% | -17%
Cc1ccc(S(=O)(=O)NC(=O)c2cc(C)n(C3CC3)c2C)cc1
 : -6% | -3%
CCCOc1ccc(NC(=O)C(=O)NCCCN2CCOCC2)cc1
 : 1% | 8%
CSCCC(NS(=O)(=O)c1ccc2c(c1)oc(=O)n2C)C(=O)N1CCN(c2ccc(F)cc2)CC1 (stereo not given)
 : -17% | -9%
CCOC(=O)N1CCC(NC(=O)c2cnn(-c3ccccc3)c2C2CCN(C(=O)OC(C)(C)C)CC2)CC1
 : -8% | -9%
COCCNC(=O)C(=O)NCC1OCCN1S(=O)(=O)c1ccc(F)cc1 (stereo not given)
 : 0% | 6%
CCn1cc(C(=O)N(C)c2cc(C)ccc2C)c2cc(OC)c(OC)cc2c1=O
 : 2% | 5%
CCCCCC(=O)N1CC2(CC(c3cccc(NC(=O)CC)c3)=NO2)C[C@H]1C(N)=O (stereo not given in full)
 : -6% | -3%
CC(OC(=O)C1=COCCO1)C(=O)Nc1cccc(S(=O)(=O)N2CCOCC2)c1 (stereo not given)
 : i | -1%
CCOc1ccc(C(=O)NCc2ccc3c(c2)OCO3)cc1
 : -12% | -19%
COc1ccc(NC(=O)C2CCCCN2N)cc1OC (stereo not given)
 : -28% | -19%
Cc1ccccc1Nc1ncnc2[nH]ncc12
 : -3% | -12%
CC(=O)N/C(=C\c1ccccc1)C(=O)OCC(=O)N(CC(C)C)c1c(N)n(Cc2ccccc2)c(=O)[nH]c1=O
 : -1% | -4%
Cc1ccc(S(=O)(=O)N2CCC(=O)N(C(COCc3ccc(Cl)cc3Cl)Cc3ccccc3)CC2)cc1 (stereo not given)
 : -14% | -27%
S=c1[nH]nc(Cc2ccc(Br)cc2)n1/N=C/c1ccc(Cl)cc1
 : -11% | 3%
CCOC(=O)CN1CC23C=CC(O2)C(C(=O)Nc2ccc(OCC)cc2)C3C1=O (stereo not given)
 : i | -6%
CC(/C=C/c1ccccc1)=N\NC(=O)c1cc(C)nc2ccccc12
 : -2%[7.34 µM] | -6%[7.34 µM]
COc1cccc(/C=C/c2nc(S(=O)(=O)c3ccccc3)c(N3CCC(C(N)=O)CC3)o2)c1
 : -3% | -23%
O=C1c2cc(CO)cc(O)c2C(=O)c2c(O[C@@H]3OC(CO)[C@@H](O)[C@@H](O)[C@@H]3O)cccc21 (stereo not given in full)
 : 5% | 6%
CCN(CC)CCN(C(=O)c1ccc2c(c1)OCCO2)c1nc2c(Cl)cccc2s1
 : -21% | -14%
CCN(C1CCS(=O)(=O)C1)S(=O)(=O)c1cccs1 (stereo not given)
 : -22% | -9%
CN(C)S(=O)(=O)c1cccc(NC(=O)c2cc(-c3cccs3)nn2-c2cccc(Cl)c2)c1
 : -19% | -28%
O=C(CSC1=NS(=O)(=O)c2ccccc2N1)NCCc1ccccc1
 : -12% | -11%
CCN(C(=O)c1ccc(S(=O)(=O)N2CCCC2)cc1)C1CCS(=O)(=O)C1 (stereo not given)
 : i | -13%
COC(=O)C1=C(N)Oc2cc(C)[nH]c(=O)c2C1c1cc(OC)c(OC)c(OC)c1 (stereo not given)
 : -11% | 1%
Cc1ccc(C(C(=O)NC2CCCCC2)N(Cc2cccnc2)C(=O)C2COc3ccccc3O2)o1 (stereo not given)
 : 0% | -15%
O=C(CN1C(=O)CCSc2ccc(S(=O)(=O)N3CCOCC3)cc21)Nc1cccc(F)c1
 : -14%[7.34 µM] | 0%[7.34 µM]
O=C(NCc1ccccn1)C1CCC(=O)N1C1CCCCC1 (stereo not given)
 : -22% | -9%
CN(c1ccccc1)S(=O)(=O)c1cccc(NC(=O)c2ccc(=O)[nH]n2)c1
 : -5% | -16%
Cc1nn(C(C)C(=O)NC2CC2)c(=O)c2nn(-c3ccccc3)c(C)c12 (stereo not given)
 : -15% | -21%
